PMP22 txn: Cell-based coincidence reporter assay to measure PMP22 gene transcription in S16 Pmp22-F2sN cells - Primary screen. Potency, µM (doses to about 57.5 µM), inactives show top-dose activity change, negative = inhibition, hits mostly inhibitors. S16 Pmp22-F2sN Schwann cells (luciferase reporters placed in the Pmp22 gene), FLuc/NLuc coincidence luminescence, 24 h. 43,000 tested, 2% active. AID 1508649, 2021; active = clear falling dose curves in both reporters; inconclusive = both reporters move, but less clearly or upward; inactive = either reporter flat; the % is the NLuc reporter signal; note: % is set by controls: 0 for no effect and ±100 for the full control effect; some results filed as inactive show a strong effect at the top dose
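Transcriptional readout in edited S16(c9) cells: two luciferases reported from the Pmp22 locus, measured in turn after 24 h compound incubation.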
HTT prom inh: Primary qHTS for Identification of Small Molecule Inhibitors of Huntingtin Promoter Activity. HEK293 HTT promoter firefly luciferase reporter (activity 0% = vehicle and -100% = no light), 24 h. Potency, µM (highest dose often 57.5 µM), for the others: top-dose activity change, negative = inhibition, usual class: inhibitors. 48,000 tested, 0.93% active; active = well fitted inhibition curve with a large enough effect; inconclusive = small, poorly fitted or top-dose-only effect; inactive = no such curve, though single readings can be large or run the other way; note: nearly all actives have a fitted effect of over 50% in size
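Quantitative HTS used concentration series of up to 57.5 uM final on HEK293 luciferase reporter cells, 24 h at 37 degrees C. Readout was Dual-Glo firefly luminescence.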
Active calls of the source: *; ? = inconclusive; nt = not tested or not shown; & = joins results of further samples; [ ] = remark or other dose. Potency is the fitted concentration of half-maximal effect.

Compound	PMP22 txn	HTT prom inh
O=c1[nH]oc2c1CCNC2	nt	13%
C[C@H](N)[C@H](O)c1ccc(O)c(O)c1	nt	-6%
Cc1ccc(Cn2cccc(C(=O)Nc3ccc(C)c(Cl)c3)c2=O)cc1	-9%	?
NC1=NC(=O)N2CC12 (stereo not given)	nt	-3%
C[C@]12CCC(=O)C=C1CC[C@@H]1[C@@H]2CC[C@@]2(C)[C@H]1CC[C@]2(C)O	nt	-20%
O=C(CCCCl)c1ccc(F)cc1	nt	11%
O=C(O)C(=O)c1cn(Cc2ccccc2)c2ccc(-c3ccc(OC(F)(F)F)cc3)cc12	nt	-16%
COc1ccccc1-c1nn2c(=O)cc(CN3CCN(C(=O)COc4ccccc4Cl)CC3)nc2s1	3%	-20%
CN1C(=O)[C@@H](NC(=O)c2cc3ccccc3[nH]2)N=C(c2ccccc2)c2ccccc21	nt	?
CSc1ccc(CN2CCN(C(=O)COc3ccc(C)cc3)CC2)cc1	-23%	?

Complete entries as entered above:
O=c1[nH]oc2c1CCNC2 is listed with PMP22 txn = nt; HTT prom inh = 13%
O=C(O)C(=O)c1cn(Cc2ccccc2)c2ccc(-c3ccc(OC(F)(F)F)cc3)cc12 is listed with PMP22 txn = nt; HTT prom inh = -16%

Next compounds.
Compound	PMP22 txn	HTT prom inh
Cc1ccc(C)c(CN2C(=O)c3ccccc3Sc3ccc(C(=O)N4CCC5(CC4)OCCO5)cc32)c1	-28%	?
CNC(C)Cc1ccc2c(c1)OCO2 (stereo not given)	nt	3%[116 µM]
Cc1nnc2n1-c1sc(CCc3ccc(CC(C)C)cc3)cc1C(c1ccccc1Cl)=NC2C (stereo not given)	nt	?
O=[N+]([O-])c1cc([N+](=O)[O-])c2ccccc2c1	nt	15%[116 µM]
CCOC(=O)c1ccc(NC(=O)CSc2nc3c(cc2C#N)N2CCC3CC2)cc1	12%	-27%
N=c1c2c(-c3ccccc3)c(-c3ccccc3)n(Cc3ccccc3)c2ncn1C1CCC(O)CC1 (stereo not given)	nt	-20%
Cc1cc(C)cc(NC(=O)CN2C(=O)CN=C(c3ccccc3)c3cc(Cl)ccc32)c1	?	-12%
CCc1ccc(-n2nc(C)c3c2NC(=O)CSC3c2ccccc2C)cc1 (stereo not given)	?	?
CCSc1nnc(NC(=O)c2cccn(Cc3ccc(Cl)cc3)c2=O)s1	-18%	-6%
CSc1ccc(CN2CCN(C(=O)COc3cccc(C)c3)CC2)cc1	-28%	?

Random excerpt: 2 records from the list.
Compound	PMP22 txn	HTT prom inh
C[C@]12CCC(=O)C=C1CC[C@@H]1[C@@H]2CC[C@@]2(C)[C@H]1CC[C@]2(C)O	nt	-20%
Cc1ccc(Cn2cccc(C(=O)Nc3ccc(C)c(Cl)c3)c2=O)cc1	-9%	?

Next part.
Compound	PMP22 txn	HTT prom inh
CCCCCC[C@H]1C(=O)O[C@H](C)[C@H](NC(=O)c2cccc(NC=O)c2O)C(=O)O[C@@H](C)[C@@H]1OC(=O)CC(C)C	nt	?
CC(C)(C)[C@]1(O)C[C@@H]2OC(=O)C[C@@]23C(=O)O[C@@H]2OC(=O)[C@H](O)C213 (stereo not given in full)	nt	-1%
COc1ccc(OC)c(C(c2c(O)c3ccccc3oc2=O)c2c(C)n(C)n(-c3ccccc3)c2=O)c1 (stereo not given)	14%	0%
Oc1ccccc1-c1ccccc1	nt	0%
COCCOCCO	nt	-3%[116 µM]
Cc1nc(-c2ccc(-c3ccc(C(=O)N4CCc5cc6c(cc54)C4(CCN(C)CC4)CO6)cc3)c(C)c2)no1	nt	-12%
CC[C@@H](C(N)=O)N1CCCC1=O	nt	-24%
CC[C@@H]1[C@@H](C)O[C@@](O)([C@@H](C)[C@H](O)[C@H](C)[C@H]2OC(=O)C=CC=C[C@@H](C)[C@@H]([C@@H](C)[C@@H](O)[C@H](C)[C@@]3(O)C[C@H](O[C@H]4C[C@H](O)[C@H](O)[C@H](C)O4)[C@H](CC)[C@@H](C)O3)OC(=O)C=CC=C[C@@H]2C)C[C@H]1O[C@H]1C[C@H](O)[C@H](O)[C@H](C)O1	nt	?
Cn1cc(/C=C/c2nc3ccccc3c(=O)n2-c2ccccc2)c2ccccc21	?	-6%
COC[C@H]1OC(=O)c2coc3c2[C@@]1(C)C1=C(C3=O)C2CCC(=O)[C@@]2(C)C[C@H]1OC(C)=O (stereo not given in full)	nt	?
CC(C)=CCN1CC[C@@]2(C)c3cc(O)ccc3C[C@@H]1[C@@H]2C	nt	-7%[116 µM]
COc1ccc(-n2c(/C=C\c3ccccc3F)nc3ccccc3c2=O)cc1OC	?	?
Cc1cccc(C)c1NC(=O)CN1CCCC1=O	nt	-13%&-1%
Cc1ccc(Cn2cccc(C(=O)Nc3nnc(C)s3)c2=O)cc1	-10%	0%
COC(C)(C)CCCC(C)C/C=C/C(C)=C/C(=O)OC(C)C (stereo not given)	nt	-1%
Cc1ccc(-c2nc3ccc(C)cn3c2CC(=O)N(C)C)cc1	nt	4%
CC=C(C)C(=O)O[C@H]1C(C)=C2[C@@H]3OC(=O)[C@@](C)(O)[C@@]3(O)[C@@H](OC(=O)CCC)C[C@](C)(OC(C)=O)[C@@H]2[C@@H]1OC(=O)CCCCCCC	nt	?
COc1cccc(NC(=O)Cn2cc(C(=O)c3ccccc3)c3ccccc32)c1	?	?
COc1ccc(Cl)cc1NC(=O)c1sc2nc3c(cc2c1N)N1CCC3CC1	10%	-4%
CCN(CC)Cc1nccn1-c1ccc([N+](=O)[O-])cc1C(=O)c1ccccc1Cl	nt	-6%
CC1NCCOC1c1ccccc1 (stereo not given)	nt	-8%
Cc1ccc(N=CN(C)C=Nc2ccc(C)cc2C)c(C)c1	nt	-1%
CCOC(=O)c1ccc(NC(=O)c2cccn(Cc3ccc(C)cc3)c2=O)cc1	71%	-2%
CC(C)Oc1cccc(NC(=O)c2ccccc2C(F)(F)F)c1	nt	-21%[116 µM]
COc1ccc(N(C(=O)Oc2c(C)cccc2C)c2ccnc(Nc3ccc(N4CCN(C)CC4)cc3)n2)c(OC)c1	nt	?
C=C1C[C@H]2[C@H]3CCC(=O)[C@@]3(C)CC[C@@H]2[C@@]2(C)C=CC(=O)C=C12	nt	-6%
CCC(CC)(CNC(=O)CCCO)c1cccc(OC)c1	nt	-5%
Clc1cccc(N2CCNCC2)c1	nt	-8%
CCC1(c2ccccc2)C(=O)N(COC)C(=O)N(COC)C1=O	nt	-4%
CC(C)(C)c1ccc(OCC(=O)Nc2ccc(Cl)cc2C(=O)c2ccccc2)cc1	-1%	-5%

The list goes on (four carried over from the part before).
Compound	PMP22 txn	HTT prom inh
CCC(CC)(CNC(=O)CCCO)c1cccc(OC)c1	nt	-5%
Clc1cccc(N2CCNCC2)c1	nt	-8%
CCC1(c2ccccc2)C(=O)N(COC)C(=O)N(COC)C1=O	nt	-4%
CC(C)(C)c1ccc(OCC(=O)Nc2ccc(Cl)cc2C(=O)c2ccccc2)cc1	-1%	-5%
CCC(COC(=O)c1cc(OC)c(OC)c(OC)c1)(c1ccccc1)N(C)C (stereo not given)	nt	5%
CNC(=O)Oc1cccc2ccccc12	nt	-4%
CCOc1ccc(-n2c(/C=C/c3ccccc3)nc3ccccc3c2=O)cc1	-4%	-26%
CCOc1ccc2nc(NC(=O)c3cccn(Cc4ccc(Cl)cc4)c3=O)sc2c1	3%	-28%
CC(C)C12CN3CC(C(C)C)(CN(C1)C3c1ccccn1)C2=O (stereo not given)	21%	70%[activator]
O=C(Nc1ccc2c(c1)OCO2)c1cccn(Cc2cccc(F)c2)c1=O	6%	0%
Cc1c(C(c2ccc(O)cc2)c2c(O)c3ccccc3oc2=O)c(=O)n(-c2ccccc2)n1C (stereo not given)	-2%	-7%
Cc1ccc(Cl)cc1NC(=O)N(Cc1ccc2c(c1)OCO2)C1CCN(Cc2ccccc2)CC1	?	?
N#Cc1cc2c(nc1SCC(=O)Nc1cccc(F)c1)C1CCN2CC1	-20%	?
O=S(=O)(F)Cc1ccccc1	nt	-5%

Part of the list above in order of molecular weight, high to low:
Compound	PMP22 txn	HTT prom inh
CCOc1ccc2nc(NC(=O)c3cccn(Cc4ccc(Cl)cc4)c3=O)sc2c1	3%	-28%
CCC(COC(=O)c1cc(OC)c(OC)c(OC)c1)(c1ccccc1)N(C)C (stereo not given)	nt	5%
N#Cc1cc2c(nc1SCC(=O)Nc1cccc(F)c1)C1CCN2CC1	-20%	?
CC(C)C12CN3CC(C(C)C)(CN(C1)C3c1ccccn1)C2=O (stereo not given)	21%	70%[activator]

Remaining list, next part.
Compound	PMP22 txn	HTT prom inh
Cc1ccccc1OCC(=O)N1CCN(CCc2ccccn2)CC1	10%	-13%[11.5 µM]
Fc1cc(Br)ccc1CBr	nt	12%
COc1cc(C[C@@H](C)N)c(OC)cc1C	nt	-5%[116 µM]
Cc1cc(NC(=O)c2cccn(Cc3ccccc3)c2=O)no1	8%	22%
COc1cc(/C=C/c2nc3ccccc3c(=O)n2-c2ccc(Br)c(C)c2)ccc1O	?	?
Cc1ccc(Cn2cccc(C(=O)Nc3ccc4c(c3)OCCO4)c2=O)cc1	3%	?
Cc1ccc(-c2nc(CN3C(=O)CN=C(c4ccccc4Cl)c4cc(Cl)ccc43)c(C)o2)cc1	?	-39%
COc1ccc(C(CN(C)C)C2(O)CCCCC2)cc1 (stereo not given)	nt	-3%&6%
CC(C)c1nn2c(=O)cc(COC(=O)Cc3ccccc3)nc2s1	16%	-1%
CCC(=O)C(CCN(C)C)(c1ccccc1)c1ccccc1	nt	-4%
Cc1nnc(NC(=O)c2cccn(Cc3cccc(F)c3)c2=O)s1	-8%	0%
Cc1cccc(-n2c(/C=C/c3cn(C)c4ccccc34)nc3ccccc3c2=O)c1	?	-18%
O=C(Oc1ccc([N+](=O)[O-])cc1)N1CCC(C(O)(c2ccc3c(c2)OCO3)c2ccc3c(c2)OCO3)CC1	nt	-7%
CC(C)[C@H]1C(=O)N[C@H](CO)Cc2c[nH]c3cccc(c23)N1C	nt	1%
CCc1ccc(NC(=O)c2cccn(Cc3cccc([N+](=O)[O-])c3)c2=O)cc1	?	?
Cc1cccc(C2CC(=O)Oc3c2c(=O)oc2ccccc32)c1 (stereo not given)	11%	10%
C=CCN1C[C@H](C)N([C@H](c2ccc(C(=O)N(CC)CC)cc2)c2cccc(OC)c2)C[C@H]1C	nt	0%
C#C[C@]1(O)CC[C@H]2[C@@H]3CCC4=CC(=O)CCC4=C3C=C[C@@]21CC	nt	-12%
Cc1c(C(c2ccc(F)cc2)c2c(O)c3ccccc3oc2=O)c(=O)n(-c2ccccc2)n1C (stereo not given)	2%	-19%
Cc1cccc(OCC(=O)N2CCN(Cc3cc(=O)n4nc(-c5ccccc5Cl)sc4n3)CC2)c1	-12%	-9%
COc1ccc(Br)cc1C1SCC(=O)Nc2c1c(C)nn2-c1ccccc1C (stereo not given)	-16%	?
CSc1ncc(C(=O)Nc2ccc(Cl)cc2C(=O)c2ccccc2)c(C)n1	-17%	1%
N#Cc1ccccc1NC(=O)c1cccn(Cc2ccccc2)c1=O	?	-50%
COc1ccc(-n2c(/C=C\c3ccccc3F)nc3ccccc3c2=O)c(OC)c1	?	?
CC(=O)c1ccc(NC(=O)c2sc3nc4c(cc3c2N)N2CCC4CC2)cc1	?	-16%
C[C@]12CC[C@H]3[C@@H](CCC4=CC(=O)CC[C@@H]43)[C@@H]1CC[C@@H]2OC(=O)CCC1CCCCC1	nt	-6%
O=C(O)c1cc(Oc2ccc(C(F)(F)F)cc2Cl)ccc1[N+](=O)[O-]	nt	8%
CCCN(CCC)CCc1c[nH]c2ccccc12	nt	-7%[116 µM]
COc1ccccc1CN1CCN(C(=O)COc2cccc(C)c2)CC1	-19%	-1%
CCCCc1ccc(NC(=O)c2cccn(Cc3ccc(Cl)cc3)c2=O)cc1	?	?
COP(=S)(OC)Oc1ccc(SC)c(C)c1	nt	1%
CC(C)(N)Cc1ccccc1Cl	nt	-7%
CCN(CC)C(=O)N[C@@H]1C=C2c3cccc4[nH]cc(c34)C[C@@H]2N(C)C1	nt	-13%

Screens as filed in PubChem.

Not all compounds are listed (hit frequency here may not be typical).
